Assay outcomes (PubChem)
DUX4 txn inh = blocks DUX4-driven transcriptional activation; 293T-iDUX4 ZSCAN4-Gaussia luciferase reporter, 24 h; hits give low values; activity change, negative = inhibition, % (concentration not given with the values); hit rate 0.8% among 37,000;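 active = -10% or lower and over 25 points stronger than a control reporter; inconclusive = -10% or lower with a smaller gap; inactive = above -10%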;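 note: 0% = median of neutral control wells and -100% = median of positive control wells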
DUX4 txn inh difference = second read-out of DUX4 txn inh, no call of its own (marks repeat the call); Gaussia minus Italica difference, %; measured here: selective DUX4 reporter inhibition;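 worked out from the two reporters; negative = selective loss of the DUX4 reporter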
DUX4 txn inh control = also measured in DUX4 txn inh; calls as there; activity change, negative = inhibition, %; measured here: Italica tet-on control reporter;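 0 = neutral control and -100 = positive control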
An asterisk follows results filed as active; ? = inconclusive; · = no result given; & = joins results of further samples.

Value order – DUX4 txn inh	DUX4 txn inh difference	DUX4 txn inh control
Cc1ccc(-c2ccc(C3[C@H]4CNC[C@@H]3N4S(=O)(=O)c3cccc(C)c3)cc2)cc1 (some centres not stated)
  5.8&2.3	4.9&-1.2	0.9&3.5
CNC(=O)C[C@@H]1CC[C@@H]2[C@H](COc3ccc(NC(=O)c4cscn4)cc3C(=O)N2C)O1
  1.5	2.7	-1.3
O=C(C[C@@H]1C=C[C@H](NC(=O)Nc2ccccc2F)[C@@H](CO)O1)NCc1ccc(-c2ccccc2)cc1
  -0.6	-0.4	-0.1
CCCNC(=O)N1C[C@H](C)[C@H](OC)CN(C)C(=O)c2ccc(NC(=O)CC)cc2OC[C@H]1C
  0.1	-9.2	9.3
O=C1N[C@H](Cc2ccccc2)COCc2cnnn2CC[C@H]1Cc1cccc(F)c1
  3.1	5.1	-1.9
O=C(C[C@@H]1C[C@@H]2c3cc(NC(=O)NC4CCCC4)ccc3O[C@@H]2[C@@H](CO)O1)NCC1CC1
  4.1	-3.7	7.8
C[C@H](O)C#Cc1cnc2c(c1)C(=O)N([C@H](C)CO)C[C@H](C)[C@H](CN(C)C(=O)CN1CCOCC1)O2
  0.0	-1.5	1.5
O=C(C1CCOCC1)N1CC2(C1)[C@@H](c1ccccc1)[C@@H](CO)N2Cc1ccccc1F
  5.3	1.9	3.4
OC[C@@H]1[C@H](c2ccc(-c3cccc(F)c3)cc2)[C@@H]2CN(Cc3cncnc3)CCCCN12
  4.3	-6.8	11.2
CCC(=O)N1[C@H](CO)[C@H]2c3ccccc3N(C(=O)CC(F)(F)F)C[C@H]21
  2.9	1.7	1.2

Value order – DUX4 txn inh	DUX4 txn inh difference	DUX4 txn inh control
COC(=O)C[C@H]1C[C@H]2c3cc(NC(=O)NC4CCCCC4)ccc3O[C@H]2[C@H](CO)O1
  7.0	8.8	-1.8
CC(=O)N(C)C[C@@H]1[C@@H](c2ccc(-c3cccnc3)cc2)[C@H](CO)N1C(=O)C1CC1
  1.3	-0.3	1.6
C/C=C/c1ccc([C@@H]2[C@@H](CO)N(C(=O)C3CC3)[C@H]2CN(CC)C(C)=O)cc1
  3.5	-1.8	5.3
CS(=O)(=O)N1[C@H](C#N)[C@@H](c2ccc(C#CC3CCCCC3)cc2)[C@H]1CO
  5.3	2.3	3.1
COCC(=O)Nc1ccc2c(c1)C(=O)N(C)C[C@@H](OC)[C@H](C)CN(Cc1cncnc1)[C@@H](C)CO2
  6.1	7.4	-1.2
CN1c2ccc(Br)cc2[C@@H]2[C@@H](CCN2C(=O)C2CCOCC2)[C@@H]1CO
  17.1	3.1	14.0
O=C(C[C@H]1C[C@@H]2c3cc(NC(=O)c4cccnc4)ccc3O[C@@H]2[C@H](CO)O1)NC1CCCCC1
  3.2	0.7	2.5
CC[C@H]1CC=CC[C@H](C)Oc2ccccc2C(=O)N(C)[C@@H](C(C)C)C(=O)N1 (mixture of isomers)
  0.6	-1.5	2.0
CN1C(=O)c2cc(NC(=O)Nc3cccc(C#N)c3)ccc2OC[C@H]2O[C@@H](CC(=O)NCc3ccc(Cl)cc3)CC[C@@H]21
  -4.2	-4.5	0.3
CCNC(=O)Nc1ccc2c(c1)C(=O)N(C)[C@H]1CC[C@@H](CC(=O)NCCOC)O[C@@H]1CO2
  -0.9	1.3	-2.2

Value order – DUX4 txn inh	DUX4 txn inh difference	DUX4 txn inh control
CC=Cc1ccc2n(c1=O)C[C@H]1[C@H](CO)[C@@H](C(=O)NC3CCC3)[C@@H]2N1C(=O)c1cnccn1 (mixture of isomers)
  5.1	3.1	2.0
C[C@@H]1CN([C@@H](C)CO)C(=O)c2cc(C#CC3(O)CCCC3)cnc2O[C@@H]1CN(C)C(=O)Cc1ccncc1
  -6.8	-4.4	-2.4
C[C@@H]1CN([C@@H](C)CO)C(=O)c2cc(C3=CCCCC3)cnc2O[C@H]1CN(C)CC1CCOCC1
  3.0	-0.3	3.2
C[C@H](NC(=O)C[C@@H]1CC[C@@H]2[C@@H](COc3ccc(NC(=O)C4CCOCC4)cc3C(=O)N2C)O1)c1ccccc1
  2.3	0.5	1.8
C[C@@H]1CN([C@H](C)CO)C(=O)c2c(c3ccccc3n2C)-c2ccccc2CO[C@H]1CN(C)Cc1ccc2c(c1)OCO2
  ?	·	·
O=C(C[C@@H]1C[C@H]2c3cc(NC(=O)c4ccc5c(c4)OCO5)ccc3O[C@H]2[C@@H](CO)O1)NCCc1ccccc1
  7.7	11.0	-3.3
CCC(=O)N1CC2(CN(Cc3ccncc3)C2)c2c(n(C)c3cc(OC)ccc23)[C@H]1CO
  9.9	4.8	5.1
C[C@@H]1CN([C@@H](C)CO)C(=O)c2c(c3ccccc3n2C)-c2ccccc2CO[C@H]1CN(C)C(=O)Nc1ccc(F)cc1
  9.8	5.6	4.2
CC(=O)N(C)C[C@H]1Oc2cc(-c3ccc(C)cc3)ccc2S(=O)(=O)N([C@@H](C)CO)C[C@H]1C
  3.8	-1.2	5.0
C[C@@H]1CN([C@@H](C)CO)C(=O)c2cccc(NC(=O)c3cnccn3)c2O[C@@H]1CN(C)S(=O)(=O)c1cn(C)cn1
  2.6	-2.7	5.4

Value order – DUX4 txn inh	DUX4 txn inh difference	DUX4 txn inh control
O=C(C[C@@H]1CC[C@H](NC(=O)c2cccnc2)[C@@H](CO)O1)NCc1ccc(Cl)c(Cl)c1
  -3.6	-3.4	-0.2
O=C(C[C@@H]1CC[C@@H]2[C@H](COC[C@H](O)CN2C(=O)c2ccccc2)O1)NC1Cc2ccccc2C1
  2.6	-4.5	7.2
C[C@@H]1CN([C@@H](C)CO)C(=O)c2cc(C3=CCCC3)cnc2O[C@@H]1CN(C)C(=O)NC1CCCC1
  1.7	2.1	-0.4
COCC#Cc1ccc2c(c1)O[C@@H](CN(C)Cc1ccc3c(c1)OCO3)[C@H](C)CN([C@H](C)CO)S2(=O)=O
  -4.0	-3.6	-0.4
C[C@H](CO)N1C[C@H](C)[C@H](CN(C)C(=O)NC2CCCCC2)OCCCC[C@H](C)Oc2ccc(NC(=O)Nc3cccc4ccccc34)cc2C1=O
  4.6	1.7	3.0
O=C(c1ccc(F)cc1)N1CC(=O)N2[C@H](C1)[C@H](c1ccc(C#CC3CCCCC3)cc1)[C@@H]2CO
  -7.2	-4.8	-2.4
O=C(C1CC1)N1CC2(C1)[C@H](c1ccccc1)[C@@H](CO)N2Cc1ccccc1F
  ?	·	·
COc1ccc(NC(=O)N2CC[C@@H]3[C@@H](CO)N(C)c4ccc(-c5cccc(C(=O)N(C)C)c5)cc4[C@@H]32)cc1
  2.2	25.1	-22.9
O=C(Nc1ccc(Cl)cc1)N1C[C@@H]2[C@H](c3ccccc31)[C@@H](CO)N2C(=O)C1CC1
  -5.9	-0.7	-5.2
C[C@@H]1CN([C@H](C)CO)C(=O)c2cc(NC(=O)CCC(F)(F)F)ccc2O[C@@H]1CN(C)Cc1ccc(-c2ccccc2)cc1
  -0.9	-3.6	2.7

Value order – DUX4 txn inh	DUX4 txn inh difference	DUX4 txn inh control
CCC(=O)N1CC2(C1)CN(C(=O)CN1CCOCC1)[C@H](CO)c1c2c2ccc(OC)cc2n1C
  12.0	-10.0	22.0
Cc1noc(C)c1S(=O)(=O)N(C)C[C@@H]1OCc2cn(nn2)CCCC(=O)N([C@@H](C)CO)C[C@@H]1C
  6.8	1.6	5.2
O=S(=O)(c1ccccc1F)N1CC[C@@H]2[C@@H](CO)Nc3ccc(-c4ccc(F)cc4)cc3[C@@H]21
  ?	·	·
O=C(C[C@@H]1CC[C@H](NC(=O)Nc2cc(F)ccc2F)[C@@H](CO)O1)NCc1ccncn1
  12.1	12.3	-0.2
CCNC(=O)[C@H]1[C@H](CO)[C@H]2Cn3c(ccc(-c4ccccc4)c3=O)[C@H]2N1Cc1ccc2c(c1)OCO2
  1.7	2.9	-1.2
CC(C)NC(=O)N1[C@@H](C#N)[C@@H](c2ccc(-c3ccc(F)cc3)cc2)[C@@H]1CO
  -4.4	-1.1	-3.3
N#C[C@@H]1[C@@H](c2ccc(-c3ccncc3)cc2)[C@@H](CO)N1C(=O)Cc1ccccc1
  -1.2	-3.7	2.5
C[C@@H]1CN([C@@H](C)CO)C(=O)c2cc(NC(=O)Nc3ccc(F)cc3)ccc2O[C@@H](C)CCCCO[C@H]1CN(C)Cc1ccccc1
  3.4	2.2	1.3
CC(=O)N1CCCCN2[C@H](CO)[C@H](c3ccc(-c4cccc(C)c4)cc3)[C@@H]2C1
  ?	·	·
CCCC#Cc1ccc2c(c1)O[C@@H](CN(C)C(=O)CC1CC1)[C@@H](C)CN([C@H](C)CO)S2(=O)=O
  -1.7	-3.3	1.5

Reformatted with the structure last: 5 of the compounds above
DUX4 txn inh,DUX4 txn inh difference,DUX4 txn inh control,Molecule
?,·,·,CC(=O)N1CCCCN2[C@H](CO)[C@H](c3ccc(-c4cccc(C)c4)cc3)[C@@H]2C1
-4.4,-1.1,-3.3,CC(C)NC(=O)N1[C@@H](C#N)[C@@H](c2ccc(-c3ccc(F)cc3)cc2)[C@@H]1CO
6.8,1.6,5.2,Cc1noc(C)c1S(=O)(=O)N(C)C[C@@H]1OCc2cn(nn2)CCCC(=O)N([C@@H](C)CO)C[C@@H]1C
1.7,2.9,-1.2,CCNC(=O)[C@H]1[C@H](CO)[C@H]2Cn3c(ccc(-c4ccccc4)c3=O)[C@H]2N1Cc1ccc2c(c1)OCO2
12.1,12.3,-0.2,O=C(C[C@@H]1CC[C@H](NC(=O)Nc2cc(F)ccc2F)[C@@H](CO)O1)NCc1ccncn1

Additional results
SMILES	DUX4 txn inh	DUX4 txn inh difference	DUX4 txn inh control
Fc1cccc(-c2ccc(C3[C@@H]4CN(Cc5ccccc5F)C[C@H]3N4)cc2)c1 (some centres not stated)	?	·	·
C[C@@H]1CN([C@H](C)CO)C(=O)Cc2cc(NC(=O)NC3CCCCC3)ccc2O[C@H]1CN(C)Cc1ccc(Oc2ccccc2)cc1	-2.5	-5.7	3.2
COCC(=O)N1C[C@@H](C)[C@H](OC)CN(C)C(=O)c2ccc(NC(=O)c3cc(C)on3)cc2OC[C@@H]1C	5.8	0.7	5.2
O=C(C[C@H]1C[C@@H]2c3cc(NS(=O)(=O)c4ccc(F)cc4)ccc3O[C@@H]2[C@@H](CO)O1)NCCN1CCCCC1	2.5	2.8	-0.3
Cc1cccc(-c2ccc([C@H]3[C@@H](CO)N4CCCCN(CCC(F)(F)F)C[C@@H]34)cc2)c1	?	·	·
CN1c2ccc(-c3cccc(C#N)c3)cc2[C@@H]2[C@@H](CCN2S(=O)(=O)c2ccccc2F)[C@H]1CO	?	·	·
C[C@H]1CN([C@@H](C)CO)S(=O)(=O)c2ccc(-c3cccc(F)c3)cc2O[C@@H]1CN(C)C(=O)Nc1cc(F)ccc1F	6.7	5.8	0.8
CCCNC(=O)N1[C@@H](C#N)[C@@H](c2ccc(C#Cc3cccc(F)c3)cc2)[C@@H]1CO	-2.7	-1.9	-0.8
O=C(C1CCC1)N1[C@H](CO)[C@@H](c2ccccc2)C12CN(CCC(F)(F)F)C2	1.8	1.0	0.7
CCC(=O)N1[C@@H](CO)[C@@H](c2ccccc2)C12CN(C(=O)c1ccncc1)C2	4.9	-0.7	5.6
COc1ccccc1S(=O)(=O)N[C@@H]1CC[C@H](CCn2cc(C3CCCCC3)nn2)O[C@@H]1CO	-3.4	-4.8	1.4
CN(C)CC#Cc1ccc([C@H]2[C@@H](CO)N3C(=O)CN(C(=O)c4cccnc4)C[C@H]23)cc1	21.3	16.3	5.0
CC(=O)N(CC1CCC1)C[C@H]1N[C@H](CO)[C@@H]1c1ccc(C2=CCCC2)cc1	-3.6	-0.3	-3.3
COc1cccc(S(=O)(=O)N2C[C@H](O)COC[C@@H]3O[C@H](CC(=O)N4CCN(C)CC4)CC[C@H]32)c1	11.1	0.8	10.4
CC(=O)N1CCCCN2[C@H](CO)[C@@H](c3ccc(-c4ccc(F)cc4)cc3)[C@H]2C1	13.1	9.9	3.2
CO[C@@H]1CC[C@@H]2CCOc3ccc(C#N)cc3C(=O)N(C)[C@@H](C)C(=O)N(C)C[C@H]1O2	-1.4	1.1	-2.5
CCC(=O)Nc1ccc2c(c1)C(=O)N(C)C[C@@H](OC)[C@H](C)CN(C(=O)Cc1cccnc1)[C@@H](C)CO2	8.1	4.3	3.8
C[C@@H]1CCCCO[C@@H](CN(C)S(=O)(=O)c2cn(C)cn2)[C@H](C)CN([C@@H](C)CO)C(=O)c2cc(NS(=O)(=O)c3cccs3)ccc2O1	2.2	-0.2	2.4
CCNC(=O)Nc1ccc2c(c1)C(=O)N(C)[C@@H]1CC[C@H](CC(=O)NCC3CC3)O[C@@H]1CO2	2.2	-3.0	5.2
Cc1ccccc1-c1ccc(C2[C@@H]3CN(C(=O)Cc4ccncc4)C[C@H]2N3)cc1 (some centres not stated)	?	-4.2	-2.2
CCCC#Cc1ccc([C@@H]2[C@H](C#N)N(C(=O)C3CC3)[C@H]2CO)cc1	3.4	1.6	1.7
COCC(=O)N1[C@H](CO)[C@H]2c3ccccc3N(C(=O)c3cccnc3)C[C@H]21	3.5	2.9	0.6
CCS(=O)(=O)N1CC2(CN(Cc3ccccc3)[C@H](CO)c3c2c2ccc(OC)cc2n3C)C1	?	·	·
COc1ccc2c3c([nH]c2c1)[C@H](CO)N(S(C)(=O)=O)CC31CCN(Cc2cccc(F)c2)CC1	?	·	·
O=C(C[C@H]1CC[C@H](NS(=O)(=O)c2ccc(F)cc2)[C@@H](CO)O1)N1CCN(c2ccccc2)CC1	-1.3	-2.9	1.6
O=C(NC1CCCC1)[C@@H]1[C@@H](CO)[C@@H]2Cn3c(ccc(-c4ccccc4F)c3=O)[C@H]1N2C(=O)CC1CC1	6.2	1.3	4.9
CC(C)CN(C[C@H]1N[C@@H](CO)[C@@H]1c1ccc(-c2cncnc2)cc1)C(=O)C1CC1	-0.6	-0.2	-0.4
C[C@@H]1CN([C@H](C)CO)C(=O)c2cccc(NC(=O)C3CCCCC3)c2O[C@H]1CN(C)S(C)(=O)=O	-0.9	-5.2	4.3

Only part of the results is shown, so the mix of outcomes need not match the whole.
